# From PubChem BioAssay
# gsp agonist – agonists of gsp mutant (McCune-Albright syndrome) | hit rate 0.13% among 340,000 | Potency, µM (doses to about 76.9 µM), without a hit: at the top dose activation (cAMP increase), most hits filed as activators | AID 624287 | gsp mutant cells, cAMP HTRF, 30 min; control for the full effect not named in the record; active = well fitted activation curve with a large enough effect; inconclusive = small, poorly fitted or top-dose-only effect, or another doubt; inactive = no such curve, though single readings can be large or run the other way; cell line not stated here;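 further: phosphodiesterase inhibitor Ro 20-1724 added with compounds to block cAMP breakdown; potency means the concentration at half of the fitted maximal effect; nearly all actives have a fitted effect of over 60% in size; about a fifth of the inactives were tested at one dose only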
#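 Cells in DMEM/10% FBS with G418 were pretreated with compounds in DMSO plus […] (300 uM stock) for 30 min at 37C. cAMP was measured by HTRF (cAMP-d2 plus anti-cAMP antibody-K) after 30 min at room temperature.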
# D2 PAM – human D2 receptor positive allosteric modulation. P14416. DiscoveRx D2 beta-arrestin cells, luminescence, 90 min; 100% = 57 uM dopamine signal. potentiation, % (test concentration not listed). hit rate 0.23% among 360,000. AID 624464; active = potentiation of 50% or more; inconclusive = 30% to 50%; inactive = 30% or less;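 further: compound concentration not given in the record; tested on top of an EC20 dose of dopamine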
# Target sequence (P14416 whole entry, looked up): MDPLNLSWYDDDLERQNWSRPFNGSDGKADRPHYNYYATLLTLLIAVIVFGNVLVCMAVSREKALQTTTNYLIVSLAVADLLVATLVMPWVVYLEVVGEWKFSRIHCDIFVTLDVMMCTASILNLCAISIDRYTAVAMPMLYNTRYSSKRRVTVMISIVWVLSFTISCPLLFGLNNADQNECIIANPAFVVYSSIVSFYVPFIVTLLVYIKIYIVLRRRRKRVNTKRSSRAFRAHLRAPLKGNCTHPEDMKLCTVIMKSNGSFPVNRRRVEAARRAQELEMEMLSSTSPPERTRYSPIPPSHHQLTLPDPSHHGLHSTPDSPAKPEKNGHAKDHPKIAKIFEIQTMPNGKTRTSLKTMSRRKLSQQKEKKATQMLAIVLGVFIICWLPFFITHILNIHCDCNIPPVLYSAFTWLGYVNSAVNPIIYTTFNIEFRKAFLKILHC
#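 PathHunter beta-arrestin assay in DiscoveRx D2 cells. Compounds were added with an EC20 of dopamine (50 nM final) for 90 min at 37 deg C. Luminescence was read 1 h after detection reagent, with 57 uM dopamine as the EC100 control.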
# D2 ag – activates the human D2 dopamine receptor; P14416; DiscoveRx PathHunter D2 beta-arrestin, luminescence, 90 min; 100% = 57 uM dopamine signal; activation, % (concentration not given with the values); hit rate 0.084% among 360,000; in the data active = activation above about 40%; inconclusive = about 15% to 40%; inactive = below about 15%; further: compound concentration not given in the record; the text of the record calls up to 30% inactive
#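 Agonist mode: compounds alone added to overnight-plated D2 PathHunter cells for 90 min at 37 C, with 57 uM final dopamine (EC100) defining full response. Beta-arrestin recruitment detected by chemiluminescent reagent, read after 1 h at ambient temperature.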
# CtBP-E1A blk – inhibitors of CtBP/E1A interaction. AlphaScreen GST-E1A/His-CtBP binding, 1536-well; stronger effect = lower value; control for the full effect not named in the record. activity change, % (no concentration beside the values). hit rate 0.49% among 340,000; in the data active means activity change below about -65%; inconclusive means about -30% to -65%; inactive means above about -30%; further: on the % scale 0 is the no-effect control and ±100 the full control effect; compound concentration not given in the record
#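 Steps: dispense buffer (Tris pH 8.0, NaCl 300 mM, TCEP 1 mM, BSA, Tween 20); add 5X protein mix (GST-E1A, His-CtBP, 125 nM each); pin 23 nL compound; 2 h at 37 °C, dark; add 5X beads (50 ug/mL); 1 h; read.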
# Six1-Eya2 blk – Six1/Eya2 interaction inhibition; AlphaScreen GST-Six1/His-Eya2 binding, biochemical; stronger effect = lower value; control for the full effect not named in the record; activity change, % (no concentration beside the values); hit rate 0.56% among 360,000; in the data active = activity change below about -65%; inconclusive = about -30% to -65%; inactive = above about -30%; further: on the % scale 0 is the no-effect control and ±100 the full control effect; compound concentration not given in the record
#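 AlphaScreen with GST-Six1 and His-Eya2 (5X mix: 250 nM and 500 nM), glutathione donor and nickel acceptor beads; buffer 50 mM Tris pH 8.0, 300 mM NaCl, 1 mM TCEP; 1 h at 37 C in the dark.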
# gsp antagonist – antagonists of gsp mutant (McCune-Albright syndrome) | gsp-mutant cells, cAMP HTRF, 30 min; control for the full effect not named in the record | Potency, µM (titrated, usually from 76.9 µM), inactives show at the highest dose activity change, negative = inhibition, actives largely listed as inhibitors | hit rate 0.4% among 340,000; active = falling curve of any shape with a large fitted effect; inconclusive = falling curve, mostly with a smaller effect; inactive = flat or rising curve; cell line not stated here;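 further: intracellular cAMP measured with PDE inhibitor Ro 20-1724 present during compound exposure; potency means the concentration at half of the fitted maximal effect; on the % scale 0 is the no-effect control and ±100 the full control effect; nearly all actives have a fitted effect of over 65% in size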
#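 Measurement of cellular cAMP by homogeneous time-resolved fluorescence following a 30 min compound exposure at 37C. The PDE inhibitor […] was present throughout; the assay buffer was DPBS with 0.05% BSA and 0.005% Tween 20.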
# * = called active by the depositor; u = inconclusive; x = no result given; [ ] = dose if it differs, or a comment. The order is random (roughly 1.4% active in at least one column).
SMILES,gsp agonist,D2 PAM,D2 ag,CtBP-E1A blk,Six1-Eya2 blk,gsp antagonist
Cc1ccc(S(=O)(=O)N2CCCC(C(=O)N3CCN(C)CC3)C2)cc1 (centres undefined),26%,16,-3.1,7,3,-2%
Cc1cc(NC(=O)c2ccc(S(=O)(=O)N(C)C)cc2)n(-c2ccccn2)n1,-5%,-4,-2.4,7,5,4%
COCCn1nnnc1C(c1cc2cccc(C)c2[nH]c1=O)N1CCN(c2ccccc2F)CC1 (centres undefined),5%,-38,-1.0,-6,-9,21%
CC(=O)c1cc2c(cc1NC(=O)CCc1ccccc1)OCO2,-16%,-23,-0.8,23,39,-4%
CCOc1cccc2sc(=NC(=O)CCS(=O)(=O)c3ccc(F)cc3)n(C)c12,2%,-4,3.1,-20,5,-22%
CCc1ccc([C@H]2[C@@H]3C(=O)C[C@@H]4C(=O)N(C5CCCCC5)C(=O)[C@@H]4[C@@H]3CN2S(=O)(=O)c2ccc(C)cc2)cc1,x,-4,-6.0,-13,-2,x
COc1ccccc1C(=O)N/C(=C\c1ccc(Br)cc1)C(=O)NCCO,-18%,-2,-5.3,-11,-17,-4%
Cc1cc(-c2cc(NC=O)c3ncc(-c4cccc(C(=O)NCCN(C)C)c4)n3c2)cc(C)c1O,x,-7,2.9,u,-21,x
CC(C)(C)c1ccc(OCCC(=O)Nc2cccc(S(=O)(=O)N3CCCC3)c2)cc1,3%,-1,-0.1,2,-7,-4%
COc1ccc(CNC(=O)c2ccc3nccnc3c2)cc1,44%,-7,0.4,0,2,10%

# An excerpt of these results, tab-delimited:
compound	gsp agonist	D2 PAM	D2 ag	CtBP-E1A blk	Six1-Eya2 blk	gsp antagonist
CC(C)(C)c1ccc(OCCC(=O)Nc2cccc(S(=O)(=O)N3CCCC3)c2)cc1	3%	-1	-0.1	2	-7	-4%
COc1ccc(CNC(=O)c2ccc3nccnc3c2)cc1	44%	-7	0.4	0	2	10%

# Next results follow:
SMILES,gsp agonist,D2 PAM,D2 ag,CtBP-E1A blk,Six1-Eya2 blk,gsp antagonist
C=CCn1c(SCC(=O)N2CCOCC2)nc2ccccc2c1=O,u,-2,-2.1,11,6,-6%
Cc1ccc(-n2c(Cc3cccs3)nnc2SCC(=O)Nc2ccc(F)c(F)c2)cc1,5%,-10,-0.6,-4,-4,-9%
O=C(NCCc1ccccc1)c1nc(CS(=O)(=O)c2ccc(Cl)cc2)no1,-23%,-2,0.4,5,-2,11%
CC1CCc2c(sc(NC(=O)c3c([N+](=O)[O-])cnn3C)c2C(N)=O)C1 (centres undefined),-10%,9,0.6,0,1,4%
COC(CNC(=O)c1ccc2c(c1)ncn2-c1ccc(C)cc1C)OC,-6%,3,2.8,4,7,2%
CN1C(=O)c2ccc(NC(=O)CSc3ccccc3)cc2C1=O,7%,-15,-2.2,x,2,-2%
CCOC(=O)c1cc2c(C(F)(F)F)cc(-c3cccnc3)nc2o1,25%,2,0.7,8,-12,3%
O=C(CN1C(=O)CCS(=O)(=O)c2ccccc21)NCc1ccc2c(c1)OCO2,u,1,0.8,4,-1,1%
Clc1cccc2sc(N3CCN(c4ccccc4)CC3)nc12,-1%[15.4 µM],-4,0.9,13,-2,1%
O=C(Nc1ccccc1)OCc1cc(-c2ccccc2Cl)on1,15%,-1,-2.5,23,23,0%
COc1ccc(-c2cc(C(=O)NC(C)c3ccccn3)c3ccccc3n2)cc1OC (centres undefined),-3%,6,12,-1,0,-9%
COc1ccc2[nH]c(C(=O)O)c(NS(=O)(=O)c3ccc(F)cc3)c2c1,12%,-6,-1.0,-4,-1,-4%
Cc1ccc(C(=O)OC(C)CN2CCN(C)CC2)cc1 (centres undefined),5%[15.4 µM],-3,-0.1,12,1,10%
Cc1cccc(NC(=S)NC(C)C(c2ccccc2)N2CCN(C)CC2)c1C (centres undefined),13%[15.4 µM],-20,-3.4,3,-17,7%
COC(=O)[C@H]1[C@H](C(=O)OC)[C@@H](C(=O)OC)N(c2ccc(OC)cc2)[C@@H]1C(=O)OC,-3%,-7,-4.3,-8,1,-12%
COc1cc(OC)cc(C(=O)NCCCCc2ccccc2)c1,7%,-5,1.5,15,-6,-15%
Cc1cccc(/C=N/n2c(C)nc3ccccc3c2=O)c1,-23%,-7,3.2,x,15,5%
Cn1c(O)c(/C=N/NC(=O)c2cc3ccccc3cc2O)c2ccccc21,-8%[15.4 µM],-9,-1.7,4,-1,35µM*
COc1cc(/C=N/NS(=O)(=O)c2ccc(C)c([N+](=O)[O-])c2)cc([N+](=O)[O-])c1O,-53%[inhibitor],-14,-10,-12,-6,-18%
Cc1cnc([N+](=O)[O-])n1CCOC(=O)NC(=O)c1ccccc1Cl,-1%[15.4 µM],0,2.2,18,8,15%
COc1cc(C(Nc2ccccn2)c2c(NC(=O)c3ccco3)sc(C)c2C)cc(OC)c1OC (centres undefined),-20%,-1,-0.5,x,-23,-11%
CC(C)CCC(CC(C)O)C(=O)NNC(=S)Nc1ccccc1 (centres undefined),-1%,-27,-6.6,x,4,9%
O=C1NC(c2ccc3c(c2)OCO3)Nc2ccccc21 (centres undefined),1%,-5,-3.7,-1,-3,8%
O=C(c1cc2cc(C(F)(F)F)ccc2s1)N1CCOCC1,8%[15.4 µM],3,0.5,0,5,6%
Cc1ccc(/C=N/NC(=O)c2c[nH]c3ccccc23)s1,12%,-23,-2.0,-13,-5,-24%
CC(C)(C)c1ccc(CC(=O)N2CCC2(C)C(=O)NS(=O)(=O)c2ccc(Cl)cc2)cc1 (centres undefined),x,-6,-3.2,1,1,x
O=C(O)/C=C/c1ccc(OCCCF)cc1,15%[15.4 µM],-11,2.9,0,10,-10%
CCOC(=O)C1CCN(c2ccc(C(=O)O)cc2[N+](=O)[O-])CC1,0%,-6,-4.2,-2,13,-13%
Cc1cccc(C)c1NC(=S)NNc1ncc(C(F)(F)F)cc1Cl,-6%,5,-1.9,-4,-3,9%
COC(=O)/C=C1\SC(=NC(=O)c2cccc([N+](=O)[O-])c2)NC1=O,2%,5,-1.0,-2,-10,-12%
CC1CC(CCC(=O)NC(=S)Nc2ccc(S(N)(=O)=O)cc2)C(=O)O1 (centres undefined),-3%,-6,2.3,2,8,8%
CC(=O)c1cc(C)c(OCc2cn(CC(=O)c3ccc(O)cc3)nn2)c(C)c1,x,-15,-8.1,4,2,-2%
COc1cc(C(=O)NNC(=O)c2ccccc2OCc2c(C)noc2C)cc(OC)c1OC,u,-3,-0.4,x,9,-6%
Cc1ccc(/C(N)=N/OC(=O)COc2ccccc2Cl)cc1,-4%,5,-4.5,-1,68,8%
c1ccc(-c2nnsc2-c2nc3ccccc3[nH]2)cc1,18%[15.4 µM],-1,-1.4,x,2,-17%
CN(/C(=N/S(=O)(=O)c1cccs1)c1ccccc1)c1ccc(O)cc1,-6%[15.4 µM],-4,1.4,1,1,10%
O=C(NCC1CC1)Nc1ccccc1F,-16%,-1,5.0,7,-2,6%
O=C(NC1CCCC1)C(c1ccsc1)N(C(=O)Cc1cccs1)c1cccc(F)c1 (centres undefined),6%,-4,0.6,8,2,4%
Cc1ncsc1C(=O)N1N=C2/C(=C/c3ccc(N4CCOCC4)cc3)CCCC2C1c1ccc(N2CCOCC2)cc1 (centres undefined),-11%,-5,-0.9,-5,-6,-8%
CC(NC(=O)CSc1nnc(-c2cccnc2)n1N)c1ccccc1 (centres undefined),6%[15.4 µM],-3,-1.4,6,6,17%

# Random excerpt: three records from the list.
SMILES,gsp agonist,D2 PAM,D2 ag,CtBP-E1A blk,Six1-Eya2 blk,gsp antagonist
Cc1ccc(S(=O)(=O)N2CCCC(C(=O)N3CCN(C)CC3)C2)cc1 (centres undefined),26%,16,-3.1,7,3,-2%
COC(CNC(=O)c1ccc2c(c1)ncn2-c1ccc(C)cc1C)OC,-6%,3,2.8,4,7,2%
O=C(O)/C=C/c1ccc(OCCCF)cc1,15%[15.4 µM],-11,2.9,0,10,-10%

# The list goes on.
SMILES,gsp agonist,D2 PAM,D2 ag,CtBP-E1A blk,Six1-Eya2 blk,gsp antagonist
Cc1ccccc1C(=O)Oc1ccc(-c2csnn2)cc1,4%[15.4 µM],-9,5.2,11,16,-5%
COc1ccc(C2Nc3ccccc3C(=O)N2c2ccc(C)cc2)cc1Cn1nnc2ccccc21 (centres undefined),-12%,-1,1.7,2,-3,-11%
COc1ccccc1-n1c(SCC(=O)N(C)C2CCS(=O)(=O)C2)nc2ccccc2c1=O (centres undefined),-10%,-6,-2.6,0,2,-20%
CSc1ccc(CNC(=O)Cn2nc(C)c3c(C)n(-c4ccc(C)cc4)nc3c2=O)cc1,-32%[inhibitor],-6,1.1,x,6,3%
C=CC(C)N1C(=O)S/C(=C\c2ccc(N3CCOCC3)cc2C)C1=O (centres undefined),24%,-5,-1.3,8,7,-5%
O=C(Nc1ccc(C(=O)N2CCOCC2)cc1)c1ccc([N+](=O)[O-])cc1,-19%,12,10,6,1,5%
Cc1oc(-c2ccc(Cl)cc2)nc1CN1CCC(C(=O)NCCCN2CCCC(C)C2)CC1 (centres undefined),24%,-12,0.4,-6,-5,-1%
CCN(C(=O)CSc1nnnn1C)c1c(N)n(Cc2ccccc2)c(=O)[nH]c1=O,-2%,-9,-2.7,5,0,-2%
Oc1[nH]c2ccccc2c1C=NCC1CCCO1 (centres undefined),-26%,-13,-3.0,-6,3,4%
Cn1c(CC(=O)NNC(=O)c2ccc(Cl)nc2)nc2ccccc21,-6%[15.4 µM],-3,-1.1,-18,u,3%
COc1cccc(NC(=O)N2CCC(C(N)=O)(N3CCCCC3)CC2)c1,21%,-1,-5.4,-1,1,11%
COc1ccccc1C(=O)NCC(=O)N/N=C/c1cn[nH]c1-c1ccccc1,u,8,4.9,-3,-14,2%
CN(CC(=O)NC1CCCCCC1)S(=O)(=O)c1ccc(F)cc1,12%[15.4 µM],2,-1.7,6,0,9%
CC(=O)/C(=N/Nc1ccc(C)cc1)Sc1nnc(CCc2ccccc2)n1-c1ccccc1,0%[15.4 µM],-6,-3.3,-10,7,10%
O=C(O)C1=C[C@H](c2ccccc2)C[C@H](OCc2ccc(CO)cc2)O1,x,-7,-0.8,-1,4,7%
Cc1cccc(NC(=O)CN(C)C(C)C(=O)Nc2ccc(S(=O)(=O)N3CCCC3)cc2)c1C (centres undefined),-15%,-9,-2.7,2,7,-11%
COc1ccc(NC(=O)Cn2nnc(-c3ccccc3)c2COc2ccc(C(C)=O)cc2)cn1,x,-34,8.2,-5,1,x
O=c1c2ccccc2nnn1COc1cccc(Cl)c1,u,4,-4.1,x,-6,-4%
O=C(NCCc1ccc(Cl)cc1)c1cnccn1,u,-4,-3.0,-1,3,1%
CCOC(=O)C1CCCN(CC(=O)Nc2nccs2)C1 (centres undefined),-1%[15.4 µM],0,7.7,3,0,11%
C[C@H]1CN([C@@H](C)CO)S(=O)(=O)c2ccc(Br)cc2O[C@H]1CN(C)C(=O)Cc1ccncc1,x,-8,-5.0,-5,0,x
COCCNCC(=O)Nc1ccccc1Sc1ccccc1,10%,-5,-2.5,-4,5,1%
